Menin MLL FP FL: inhibitors of human menin-MLL interaction, wild-type MLL peptide; Fluorescence polarization, fluorescein-MLL peptide displacement from menin; FP activity change, % at 61.4 µM; 290,000 tested, under 10 active; AID 1766; inconclusive = falling polarisation curve, or a change in total fluorescence; inactive = total fluorescence flat and polarisation flat or rising; no compound was filed as active; the % refers to the polarisation; negative = inhibition;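 note: % of control where 0% means no effect; inhibitors lower the polarisation; unlabelled MLL peptide was the positive control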
TRPV1 PAM: human TRPV1 potentiation | Q8NER1 | TRPV1-expressing cells, Fluo-8 calcium influx, capsaicin EC20 potentiation; host cell line not named in the record; control for the full effect not named in the record | potentiation, % at 8.33 µM | 0.02% of 320,000 active | AID 540277; active means potentiation above 80%; inconclusive means 30% to 80%; inactive means below 30%; note: 0% is about no effect
Target sequence (Q8NER1 whole entry, looked up): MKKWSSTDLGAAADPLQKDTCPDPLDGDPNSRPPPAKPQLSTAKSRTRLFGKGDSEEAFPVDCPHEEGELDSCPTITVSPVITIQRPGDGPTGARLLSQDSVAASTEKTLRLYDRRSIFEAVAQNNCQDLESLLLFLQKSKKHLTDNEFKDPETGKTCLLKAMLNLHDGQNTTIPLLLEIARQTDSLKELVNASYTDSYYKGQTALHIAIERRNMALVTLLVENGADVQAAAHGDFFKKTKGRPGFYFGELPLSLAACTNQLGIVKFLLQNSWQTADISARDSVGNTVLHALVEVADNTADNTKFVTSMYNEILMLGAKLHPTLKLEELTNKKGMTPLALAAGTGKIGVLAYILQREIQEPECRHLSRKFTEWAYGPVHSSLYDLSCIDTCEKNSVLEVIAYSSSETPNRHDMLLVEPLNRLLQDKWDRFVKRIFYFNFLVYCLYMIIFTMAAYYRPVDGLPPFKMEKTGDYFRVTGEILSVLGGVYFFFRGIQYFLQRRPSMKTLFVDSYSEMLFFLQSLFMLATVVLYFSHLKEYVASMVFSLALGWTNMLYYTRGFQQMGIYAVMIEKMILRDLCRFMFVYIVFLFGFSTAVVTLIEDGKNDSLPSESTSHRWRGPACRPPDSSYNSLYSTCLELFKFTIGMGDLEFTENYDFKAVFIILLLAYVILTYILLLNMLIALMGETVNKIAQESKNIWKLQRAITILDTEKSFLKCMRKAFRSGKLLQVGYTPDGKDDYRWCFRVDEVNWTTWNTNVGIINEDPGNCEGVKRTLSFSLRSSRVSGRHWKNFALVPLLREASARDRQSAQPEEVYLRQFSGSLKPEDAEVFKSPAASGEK
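Cells expressing TRPV1 were dye-loaded with Fluo-8 and read kinetically: 10 s baseline, 3 min after compound (agonist portion), then 2 min after EC20 capsaicin (allosteric enhancer portion). Calcium-bound dye fluorescence at 480/520 nm.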
gsp antag: gsp mutant antagonism. 0.4% of 340,000 active. Potency, µM (titrated, usually from 76.9 µM), for inactives: top-dose activity change, negative = inhibition, usual class: inhibitors. AID 624288. gsp-mutant cells, cAMP HTRF, 30 min; control for the full effect not named in the record; active = falling curve of any shape with a large fitted effect; inconclusive = falling curve, mostly with a smaller effect; inactive = flat or rising curve; cell line not stated here;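 note: intracellular cAMP measured with PDE inhibitor Ro 20-1724 present during compound exposure; potency is the fitted concentration of half-maximal effect; % is set by controls: 0 for no effect and ±100 for the full control effect; nearly all actives have a fitted effect of over 65% in size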
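G418-selected cells were plated in DMEM/10% FBS for 16-24 h at 37C, then treated with compounds plus the PDE inhibitor […] (300 uM solution added) for 30 min at 37C. Intracellular cAMP was measured by HTRF after 30 min lysis at room temperature.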
TRPML1 blocker: blocks the human TRPML1 channel; TRPML1-inducible cells, Ca2+ dye fluorescence, FDSS; active compounds read low; inhibition of EC80 agonist-evoked calcium signal; 0.02% of 390,000 active; Q9GZU1; activity change, negative = inhibition, % (no concentration beside the values); AID 624415; in the data active means activity change below about -50%; inconclusive means about -30% to -50%; inactive means above about -30%;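 note: stimulus is agonist 54-4 at its EC80 concentration; % is set by controls: 0 for no effect and ±100 for the full control effect; compound concentration not given in the record; the text of the record puts the active cut at -80%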
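Calcium fluorescence in TRPML1-DL cells induced overnight with Tet: a 110 s read after compound pin addition, then a 110 s antagonist read after challenge with 54-4 at 4 uM final (EC80).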
Sfp PPTase inh: inhibitors of Bacillus subtilis Sfp phosphopantetheinyl transferase; Q9F4F7; Biochemical Sfp PPTase activity, qHTS; Potency, µM, for the others: max response, negative = inhibition, actives largely listed as inhibitors; 3.5% of 310,000 active; active = well fitted inhibition curve with a large enough effect; inconclusive = small, poorly fitted or top-dose-only effect, or another doubt; inactive = no such curve, though single readings can be large or run the other way;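 note: the enzyme is Sfp with the accession as filed and its product quenches rhodamine fluorescence; potency is the fitted concentration of half-maximal effect; 0% = enzyme reaction without inhibitor and -100% = no enzyme wells; top concentration of the series not given in the record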
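Fluorescence-quenching assay: 15 nM Sfp-PPTase preincubated 15 min at room temperature with compound, then 5 uM rhodamine-CoA and 12.5 uM BHQ-2-labelled YbbR peptide added. Fluorescence (ex 525/em 598 nm) read at start and after 30 min; difference gives rate.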
ClpP mod: qHTS Assay for Activators of ClpP | purified B. subtilis ClpP, FRET peptide cleavage, 20 min | Potency, µM (doses to about 57.5 µM), for inactives: at the highest dose activity change, negative = active | ATP-dependent Clp protease proteolytic subunit (Bacillus subtilis (strain 168)), P80244 | AID 651965, 2013 | 1.9% of 340,000 active; active = well fitted falling curve with a large enough effect; inconclusive = small, poorly fitted or top-dose-only effect; inactive = no such curve, though single readings can be large or run the other way; note: potency is the fitted concentration of half-maximal effect; the source files actives as falling curves though it sought activators and does not explain the sign; nearly all actives have a fitted effect of over 65% in size; many hits overshoot -100%
Target sequence (P80244 whole entry, looked up): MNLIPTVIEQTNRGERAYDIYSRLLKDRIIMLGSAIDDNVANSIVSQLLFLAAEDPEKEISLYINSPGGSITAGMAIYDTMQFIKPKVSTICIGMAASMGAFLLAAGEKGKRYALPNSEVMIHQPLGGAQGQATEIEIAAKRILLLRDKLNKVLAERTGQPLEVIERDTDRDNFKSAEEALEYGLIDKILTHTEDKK
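ClpP 10 microg/mL final, pH 8 Tris/KCl buffer with BSA, glycerol, Tween-20; compound pinned in; FRET-FV substrate; RT 20 min; Ex320/Em430; ΔFRET vs ADEP 5.8 microM, DMSO, no enzyme.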
gsp ag: agonists of gsp mutant (McCune-Albright syndrome); gsp mutant cells, cAMP HTRF, 30 min; control for the full effect not named in the record; 0.13% of 340,000 active; AID 624287; Potency, µM (titrated, usually from 76.9 µM), for the others: at the highest dose activation (cAMP increase), usual class: activators; active = well fitted activation curve with a large enough effect; inconclusive = small, poorly fitted or top-dose-only effect, or another doubt; inactive = no such curve, though single readings can be large or run the other way; cell line not stated here;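 note: phosphodiesterase inhibitor Ro 20-1724 added with compounds to block cAMP breakdown; potency is the fitted concentration of half-maximal effect; nearly all actives have a fitted effect of over 60% in size; about a fifth of the inactives were tested at one dose only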
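Cells in DMEM/10% FBS with G418 were pretreated with compounds in DMSO plus […] (300 uM stock) for 30 min at 37C. cAMP was measured by HTRF (cAMP-d2 plus anti-cAMP antibody-K) after 30 min at room temperature.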
* marks the source's active call; other numbers are inactive results; ? = inconclusive; nt = not tested or not shown; & = joins results of further samples; [ ] = another dose, or the depositor's remark.

nr	canonical_smiles	Menin MLL FP FL	TRPV1 PAM	gsp antag	TRPML1 blocker	Sfp PPTase inh	ClpP mod	gsp ag
1	COC1CCCN(Cc2nc(Cc3ccccc3F)no2)C1 (stereo not drawn)	-3.8	19	8%	7	26%	-0.4%	-8%
2	Cc1c(C)c2ccc(O)c(CN3CCN(C)CC3)c2oc1=O	2.0	5	-3%	18	?	3.9%	?
3	COc1ccc(N2CCN(C(c3ccccc3OC)c3nnnn3C3CCCC3)CC2)cc1 (stereo not drawn)	0.3	-1	-6%	?	4%	-3.8%	-52%[inhibitor]
4	CCOC(=O)N1CCN(C(=O)CCSc2ccc(Cl)cc2)CC1	1.3	0	-4%	-2	11%	1.4%	-3%
5	CCOC(=O)C1CCN(C(=O)C2CCN(S(=O)(=O)N3CCC4(CC3)OCCO4)CC2)CC1	-3.1	1	-6%	8	12%	0.3%	28%
6	OC(COc1ccc(Cl)cc1)CN1CCN(c2ccccn2)CC1 (stereo not drawn)	nt	nt	12%	6	nt	-0.8%	9%[15.4 µM]
7	Cc1noc(/C=C/N(C)C)c1S(=O)(=O)N1CCCC(C(=O)NCc2cccs2)C1 (stereo not drawn)	?	13	-6%	5	-17%	-2.0%	-25%
8	CCOC(=O)CC(NC(=O)c1cc2cccc(OC)c2oc1=O)c1cccc([N+](=O)[O-])c1 (stereo not drawn)	3.8	8	-5%	12	50µM*	1.4%	3%[15.4 µM]
9	NC(=O)C1CCN(C(=S)NCc2ccc3c(c2)OCO3)CC1	0.1	4	10%	-2	8%	0.8%	-3%
10	O=C(NC1(C(F)(F)F)N=C(c2ccccc2)NC1=O)c1ccccc1F (stereo not drawn)	1.2	15	10%	18	9%	1.1%	-22%
11	CC(C)N(Cc1ccccc1)C(=O)Cn1c(=O)cnc2ccccc21	2.8	-4	-7%	18	10%	-14%	2%
12	CCc1nnc(NS(=O)(=O)c2ccc(N3C(=O)C4CC=C(Cl)CC4C3=O)cc2)s1 (stereo not drawn)	1.1	?	-13%	-14	-2%	-1.4%	2%

Continued.
nr	canonical_smiles	Menin MLL FP FL	TRPV1 PAM	gsp antag	TRPML1 blocker	Sfp PPTase inh	ClpP mod	gsp ag
13	O=C1CN(S(=O)(=O)c2ccccc2Cl)CCN1	nt	4	1%	-1	nt	0.8%	-1%[15.4 µM]
14	Cc1ccc(S(=O)(=O)Nc2nc3ccc(N)cc3s2)cc1	5.4	3	-30%	3	9%	nt	-19%
15	C/C(=N/Nc1ccc([N+](=O)[O-])cc1)c1c[nH]c2ccccc12	?	8	?	-3	6%	1.8%	13%
16	COc1ccc(N2CC(C(=O)Nc3ccc(S(=O)(=O)N4CCCC4)cc3)CC2=O)cc1 (stereo not drawn)	-0.1	2	1%	4	5%	nt	5%[15.4 µM]
17	O=C(CCC(=O)N1CCN(c2ccccc2F)CC1)c1ccc(Cl)s1	nt	nt	4%	23	nt	0.2%	5%
18	O=[N+]([O-])c1ccc(O)c(C=NNc2ccc(S(=O)(=O)O)cc2)c1	nt	nt	0%	-2	nt	nt	-50%[inhibitor]
19	Cc1ccnc(NC(=O)CN2C(=O)c3ccccc3S2(=O)=O)c1	nt	12	6%	9	nt	nt	1%[15.4 µM]
20	O=C(Nc1cccnc1)c1ccc(NC(=O)c2ccco2)cc1	0.8	-5	-7%	-11	20%	-2.4%	-5%
21	O=S1(=O)N=C(N/N=C/c2cccs2)c2ccccc21	3.3	3	2%	33	5%	nt	24%
22	Cc1ccc(Nc2nc(N)c([N+](=O)[O-])c(NCc3ccccc3)n2)cc1	0.9	18	15%	-2	6%	nt	-5%[15.4 µM]
23	O=C(c1ccc(F)cc1)N1C2CCC1CC(O)(c1ccccc1F)C2 (stereo not drawn)	5.4	2	-9%	0	18%	-0.3%	-21%
24	CC(=O)N(c1cccc(C)c1)S(=O)(=O)c1ccc(Cl)cc1	1.6	-8	3%	1	19%	0.6%	-36%[inhibitor]

The listing continues:
nr	canonical_smiles	Menin MLL FP FL	TRPV1 PAM	gsp antag	TRPML1 blocker	Sfp PPTase inh	ClpP mod	gsp ag
25	Cn1c(N)c(C(=O)CSc2ccccn2)c(=O)n(C)c1=O	2.0	0	3%	8	11%	1.8%	7%[15.4 µM]
26	CC(C)c1[nH]nc2c1C1(CCN(Cc3ccccc3)CC1)C(C#N)=C(N)O2	?	12	-5%	14	4%	-5.2%	0%
27	CCCn1c(N)c(N(C)C)c(=O)n(CC(=O)Nc2ccc(OC(F)(F)F)cc2)c1=O	3.7	?	-3%	-9	16%	-1.5%	-43%[inhibitor]
28	CC(=O)Nc1ccc2c(c1)Cc1cc(N3C(=O)C=CC3=O)ccc1-2	nt	nt	-5%	-10	nt	nt	-5%
29	C/C(=N/OC(=O)c1ccc(C(F)(F)F)cc1)c1oc(C)nc1C	-1.5	-6	14%	-5	8%	1.9%	-14%[15.4 µM]
30	C/C(=N/NC(=O)c1ccc(C)s1)c1cccnc1	8.8	-9	0%	0	-23%	-2.2%	0%
31	CCOc1ccc(/C=N/NC(=O)CCC(=O)Nc2ccc(F)cc2)cc1	-2.9	11	5%	25	10%	nt	-4%
32	COC(C[C@H]1O[C@@H]1C(=O)[C@H](C)OCc1ccccc1)OC	nt	nt	7%	-19	nt	-1.5%	nt
33	O=C(COc1ccc2c3c(c(=O)oc2c1)CCCC3)N1CCN(c2ccccc2)CC1	nt	20	9%	2	8%	-0.1%	-29%
34	CCOc1ccc(CCNC(=O)COC(=O)/C=C/c2ccc(OCC#N)c(OC)c2)cc1OCC	4.2	4	17%	10	-1%	3.3%	-11%[15.4 µM]
35	Cc1ccc(OCc2ccc(C(=O)NNC(=S)NCC3CCCO3)o2)c([N+](=O)[O-])c1 (stereo not drawn)	nt	-2	-4%	0	3%	-2.4%	-13%
36	COC(=O)[C@]12C(=O)NC[C@H](CN1c1ccc(Cl)c(C)c1)N2C	nt	nt	9%	29	nt	-1.8%	nt

Next section.
nr	canonical_smiles	Menin MLL FP FL	TRPV1 PAM	gsp antag	TRPML1 blocker	Sfp PPTase inh	ClpP mod	gsp ag
37	COc1ccccc1-c1c(C(F)(F)F)oc2cc(OC(=O)c3ccccc3[N+](=O)[O-])ccc2c1=O	-2.2	-10	-27%	8	7%	-1.3%	?
38	Cc1ccn(Cc2n[nH]c(=S)n2Cc2ccccc2)n1	7.1	28	-1%	62	11%	-0.6%	2%
39	CC1(C)CC(c2csc(N)n2)CCO1 (stereo not drawn)	0.2	-2	-7%	0	13%	-3.3%	14%
40	COc1ccc(N(CC(O)CN2CCOCC2)S(=O)(=O)c2ccc(C)cc2)cc1 (stereo not drawn)	-6.4	0	2%	38	6%	nt	9%
41	CC(=O)Nc1ccc(N2CCN(Cc3ccccc3)CC2)cc1	0.5	1	-6%	17	8%	0.4%	-4%
42	C=CCn1c(C)cc(C2=NNC(=NCC)SC2)c1C	5.8	-18	-15%	-10	56µM*	nt	-105%
43	Cc1c(C(=O)O)sc2ncn(C)c(=O)c12	0.7	11	10%	6	11%	0.3%	?
44	O=C1CC(c2cc(-c3ccccc3)no2)C1	1.4	14	9%	10	1%	0.1%	24%
45	O=S(=O)(c1ccccc1)c1nc(-c2ccco2)oc1NCCN1CCOCC1	-12	?	1%	11	?	-1.2%	23%
46	Cc1ccc(NCc2nnc(SCC(=O)OC3CCCCC3)o2)c(C)c1	0.1	-1	?	-7	-1%	-0.7%	-31%[inhibitor]
47	O=C(CNC(=O)c1ccccc1O)N/N=C/c1ccccn1	0.1	6	1%	4	-12%	nt	7%
48	CCOC(=O)[C@H]1[C@H]2COc3ccccc3[C@@H]2N2C(=O)CN(CC3CCCO3)C(=O)[C@@]12C (stereo partly drawn)	nt	nt	-5%	32	nt	-2.1%	19%

(cont.)
nr	canonical_smiles	Menin MLL FP FL	TRPV1 PAM	gsp antag	TRPML1 blocker	Sfp PPTase inh	ClpP mod	gsp ag
49	COc1ccc(-n2c(=O)cc(N3CC(C)OC(C)C3)[nH]c2=O)cc1 (stereo not drawn)	-0.6	5	8%	3	-5%	?	-1%
50	CC(C)c1ccc(CNNC(=O)c2ccccc2)cc1	-2.8	-7	-7%	19	15%	0.7%	6%
51	Cc1ccc(CNC(=O)CN2c3cccc4cccc(c34)S2(=O)=O)cc1	nt	13	-6%	13	nt	-13%	-23%
52	O=S(=O)(c1ccccc1)N(CC(O)CN1CCCC1)c1ccccc1 (stereo not drawn)	-5.4	4	9%	19	4%	nt	-19%
53	Nc1ccc(N2CCN(C(=O)c3ccco3)CC2)cc1	8.4	13	?	-14	-19%	-0.7%&-0.9%	4%
54	O=C(CN1CCC(c2nc3ccccc3s2)CC1)NCc1ccccc1	0.1	-1	-26%	-6	7%	0.1%	-31%[inhibitor]
55	COc1cccc(Nc2ncnc3c2cnn3C)c1	5.7	-18	10%	1	-6%	-1.6%	-24%
56	CCOC(=O)c1csc(NC(=O)c2cccs2)n1	4.3	-6	-11%	-2	19%	2.0%	13%
57	CC(C)CN1CN(S(=O)(=O)c2cccs2)c2nc3ccccc3nc21	5.9	-7	nt	nt	-21%	nt	nt
58	COC(=O)COc1ccc(S(=O)(=O)Nc2ccc(NC(C)=O)cc2)cc1C	6.2	28	-5%	-9	9%	2.7%	-23%
59	COc1ccccc1NC(=O)c1cc(C(=O)Nc2ccccc2OC)n(C)n1	nt	nt	-19%	4	nt	nt	-16%
60	CC(C)C(=O)N=C1SC2CS(=O)(=O)CC2N1Cc1ccc(Cl)cc1 (stereo not drawn)	-1.1	-1	2%	-1	-2%	nt	?
61	CC(=O)N1CCN(CC(=O)Nc2ccccc2Sc2ccccc2)CC1	0.6	20	-1%	0	-1%	-2.5%	-9%
62	O=C1COc2ccc(C(=O)COC(=O)c3ccccn3)cc2N1	nt	-3	8%	11	nt	-2.0%	-6%[15.4 µM]
63	Cc1c2c(nc3ccccc13)CC(C)(C)CC2=O	-4.3	-10	8%	7	27%	0.7%	11%[15.4 µM]

From PubChem

This is a random part of the collection; about 4.9% have a hit in one of these screens.
